FGF22 binding = binders of human FGF22 protein, primary screen, FGF22 synaptogenesis inhibitor project, biophysical, thermal shift, single point. Fibroblast growth factor 22 (Homo sapiens), Q9HCT0. recombinant FGF22 thermal shift, SYPRO orange fluorescence; percent of sucrose octasulfate shift, DMSO zero. calls only at 9.99 µM. 340,000 compounds, 1.5% hits. AID 651658, 2012;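 active means melting point raised past a set limit in the mean and every replicate; three in four hits are not shown here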
Target sequence (Q9HCT0 whole entry, looked up): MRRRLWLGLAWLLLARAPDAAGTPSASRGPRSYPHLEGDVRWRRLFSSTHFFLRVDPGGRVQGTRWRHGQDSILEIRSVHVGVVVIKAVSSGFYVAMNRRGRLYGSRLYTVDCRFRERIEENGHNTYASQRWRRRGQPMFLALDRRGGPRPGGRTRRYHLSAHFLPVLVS
rRNA inh HTS = reduced GFP signal of wild-type E. coli, primary screen, bacterial rRNA inhibitor project, GFP/RFP fluorescence, OD600, single point | 350,000 compounds, 1.6% hits | AID 720706, 2013 | E. coli WT GFP vs humanized-ribosome RFP mutants, 24 h; hits give low values; DMSO median 0, no signal -100 | GFP signal change (wild-type ribosome), % (no concentration beside the values);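 active means significant combined selectivity score with lowered wild-type GFP, culture density cut under 30%, mutant RFP and density less affected; inactive means any of these conditions unmet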; further: one replicate is shown; some compounds called inactive have numbers as strong as hits
HNF4A DNA FP = change in binding of human HNF4A to DNA, primary screen, biochemical, fluorescence polarization, FITC-DNA. Hepatocyte nuclear factor 4-alpha (Homo sapiens), P41235. activity change, % at 10 µM. 1 h. 360,000 compounds, 0.3% hits. AID 1224865, 2016; in the data active means activity change above about 30%, passing the limit was not always enough;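 further: controls were the assay level and a saturating level of protein; the project sought stronger binding though the title names inhibitors; some compounds called inactive have numbers as strong as hits; positive values seem to mean higher polarization but the record does not say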
UCH37 inh = inhibitors of human UCH37 deubiquitinase, primary screen, biochemical, Ub-AMC cleavage, fluorescence. purified proteasome/UCH37. inhibition, % (no concentration beside the values). 330,000 compounds, 0.33% hits;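 active means mean of two replicates above 20%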;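 further: 0% = compound-free wells with enzyme and 100% = wells lacking proteasome; stock transfer was 100 nL into about 20 µL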
Target sequence (Q9Y5K5 whole entry, looked up): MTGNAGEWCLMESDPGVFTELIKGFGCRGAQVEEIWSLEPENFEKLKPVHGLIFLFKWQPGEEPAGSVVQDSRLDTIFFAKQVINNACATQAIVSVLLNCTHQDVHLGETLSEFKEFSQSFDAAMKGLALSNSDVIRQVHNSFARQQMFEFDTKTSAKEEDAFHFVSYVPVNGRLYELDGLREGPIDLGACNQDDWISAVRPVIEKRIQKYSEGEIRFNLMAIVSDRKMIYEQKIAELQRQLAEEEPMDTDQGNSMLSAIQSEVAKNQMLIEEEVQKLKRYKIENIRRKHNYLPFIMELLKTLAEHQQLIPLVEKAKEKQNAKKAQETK
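assay system = human UCH37 enzyme supplied as purified proteasome complex | amount = proteasome at 0.15 nM in the dispensed enzyme solution | schedule = 30 min compound-proteasome preincubation then 25 min substrate reaction, room temperature | measured by = fluorescence, ex 355 nm, em 460 nm | benchmarks = no-proteasome wells (full inhibition) and compound-free wells (no inhibition)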
Beta2AR agonist = beta2AR agonists driving receptor internalization, primary screen, cell-based, FAP fluorogen, flow cytometry; Beta-2 adrenergic receptor (Homo sapiens), P07550; Am2.2-beta2AR cells; reference of the scale not given here; response, % (test concentration not listed); 340,000 compounds, 0.43% hits; AID 504454, 2011;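 active means response above a set limit, near 3 SD of response in nonfluorescent compounds, cut at about 42% in these data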;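 further: stock transfer was 100 nL into about 11 µL; a reference agonist was the positive control; negative values mostly stem from fluorescent compounds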
E coli growth = E. coli growth inhibition, primary screen, OD600. Escherichia coli growth, 23 h; hits give low values. OD600 absorbance (no concentration beside the values). 330,000 compounds, 0.21% hits;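 active means OD600 absorbance below the run mean of sample wells minus 3.6 SD, in any replicate, cut at about 0.56 in these data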;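 further: stock transfer was 300 nL into about 60 µL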
ALR inh = inhibitors of human ALR sulfhydryl oxidase, primary screen, biochemical, H2O2 detection, HRP-luminol luminescence, single point | AID 485317, 2010 | inhibition, % (concentration not given with the values) | purified ALR, DTT oxidation | 290,000 compounds, 3.8% hits;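 active means mean and each replicate at 75% or more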;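 further: stock transfer was 7.5 nL into about 7.5 µL; 0% = neutral wells and 100% = wells with inactivated enzyme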
Target sequence (P55789 whole entry, looked up): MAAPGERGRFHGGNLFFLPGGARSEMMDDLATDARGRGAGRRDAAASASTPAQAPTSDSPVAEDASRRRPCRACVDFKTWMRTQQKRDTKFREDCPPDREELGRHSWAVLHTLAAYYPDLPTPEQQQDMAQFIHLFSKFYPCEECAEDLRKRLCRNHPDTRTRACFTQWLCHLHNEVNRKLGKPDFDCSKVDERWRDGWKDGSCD
rRNA inh HTS OD600 = recorded beside rRNA inh HTS, whose call it bears; OD600 change, %; measured here: OD600 growth;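 optical density of the mix in the first replicate; 0 = DMSO median and -100 = no signal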
rRNA inh HTS RFP = also measured in rRNA inh HTS; calls as there; RFP signal change, %; measured here: RFP humanized mutant strains;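 first replicate; 0 = DMSO median and -100 = no signal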
* hit, by the source's call. The list is partial; count on the stated rates, not on these rows.

Screening COc1ccccc1-c1nc(C(F)(F)F)c(OC)o1 returned HNF4A DNA FP 4.1, UCH37 inh 0.3, Beta2AR agonist -2, E coli growth 0.71 and ALR inh 0.
Cc1c(C(=O)N2CCN(C)CC2)oc2ccc(S(=O)(=O)N3CCOCC3)cc12 was read as HNF4A DNA FP 4.1, UCH37 inh 2.3, Beta2AR agonist -3, E coli growth 0.69 and ALR inh -18.
N#C/C(=C\c1cccnc1)C(=O)Nc1ccc(Cl)cc1 was read as FGF22 binding inactive, rRNA inh HTS -1, HNF4A DNA FP -0.3, UCH37 inh 0.1, Beta2AR agonist 20, E coli growth 0.68, ALR inh 98*, rRNA inh HTS OD600 -4 and rRNA inh HTS RFP 0.5.
COc1ccc(NC(=O)CN(C)C(=O)CNC(=O)C2CCCCC2)cc1 was read as FGF22 binding inactive, rRNA inh HTS 6, HNF4A DNA FP -0.1, UCH37 inh -0.9, Beta2AR agonist -2, E coli growth 0.67, ALR inh -5, rRNA inh HTS OD600 10 and rRNA inh HTS RFP -1.6.
`Cc1cccnc1CN1CCN(Cc2nc(C(c3ccccc3)c3ccccc3)no2)CC1` gave rRNA inh HTS 6, HNF4A DNA FP 3.0, UCH37 inh 3.2, Beta2AR agonist 1, E coli growth 0.71, rRNA inh HTS OD600 2 and rRNA inh HTS RFP -0.6.
`C[C@H]1COC(=O)[C@@H](Cc2ccc(F)cc2)CC/C=C/C[C@H](CC(=O)N(CCO)Cc2ccccc2)C(=O)N1` gave FGF22 binding inactive, rRNA inh HTS -3, HNF4A DNA FP -2.9, UCH37 inh 0.1, Beta2AR agonist -14, ALR inh 1, rRNA inh HTS OD600 5 and rRNA inh HTS RFP -7.4.
For CCCCNC(=O)c1c[nH]c2ccc(S(=O)(=O)Nc3ccc(OCC)cc3)cc2c1=O the results were HNF4A DNA FP -2.4, UCH37 inh 2.4, Beta2AR agonist -12, E coli growth 0.68 and ALR inh 4.
Cc1cccc(C)c1NC(=O)NC1(C(=O)N2CCN3CCCC3C2)CCCCC1 (configuration not stated) was read as FGF22 binding inactive, rRNA inh HTS 5, HNF4A DNA FP 3.0, UCH37 inh 3.2, Beta2AR agonist -4, E coli growth 0.65, ALR inh -2, rRNA inh HTS OD600 9 and rRNA inh HTS RFP 1.1.
Screening Cc1[nH]c2ccc(C(=O)OC(C)C(=O)NC3(C#N)CCCCC3)cc2c1C (configuration not stated) returned FGF22 binding inactive, rRNA inh HTS 5, HNF4A DNA FP 1.0, UCH37 inh -2.2, Beta2AR agonist 1, E coli growth 0.7, ALR inh 53, rRNA inh HTS OD600 0 and rRNA inh HTS RFP -1.5.
Screening Cn1c(N)c(C(=O)COC(=O)/C=C/c2ccc(Cl)cc2)c(=O)n(C)c1=O returned FGF22 binding inactive, HNF4A DNA FP 1.3, UCH37 inh -1.8, Beta2AR agonist -2, E coli growth 0.63 and ALR inh -5.
Screening CCOC(=O)N1CCN(S(=O)(=O)c2ccc3c(c2)CC(C)N3C(=O)C2CC2)CC1 (configuration not stated) returned FGF22 binding inactive, rRNA inh HTS -10, HNF4A DNA FP 1.6, UCH37 inh 6.8, Beta2AR agonist -9, E coli growth 0.7, ALR inh -2, rRNA inh HTS OD600 -8 and rRNA inh HTS RFP 1.4.
NS(=O)(=O)c1ccc(-c2cccc(/C=C3\SC(=O)NC3=O)c2)cc1 was read as FGF22 binding inactive, rRNA inh HTS -21, HNF4A DNA FP -1.6, Beta2AR agonist -7, ALR inh -1, rRNA inh HTS OD600 -43 and rRNA inh HTS RFP -14.
`CCCCCNC(=O)CSC1=N/C(=C\c2ccc(Cl)c(Cl)c2)C(=O)N1CC` gave HNF4A DNA FP -0.1, UCH37 inh -3.0, Beta2AR agonist -7 and ALR inh -5.
COc1ccc(-c2csc(Nc3cccnc3)n2)cc1 was read as HNF4A DNA FP -3.1, UCH37 inh -1.3, Beta2AR agonist -16, E coli growth 0.75 and ALR inh 5.
Screening Cc1[nH]nc2c1C1(CCN(C(=O)OCc3ccccc3)CC1)C(C#N)=C(N)O2 returned HNF4A DNA FP 1.7, UCH37 inh 1.2, Beta2AR agonist 1, E coli growth 0.75 and ALR inh 26.
For CC1CN(Cc2c(O)ccc3c(=O)c(-c4ccccc4)coc23)CC(C)O1 (configuration not stated) the results were FGF22 binding inactive, rRNA inh HTS 14, HNF4A DNA FP 0.5, UCH37 inh -388, Beta2AR agonist -1, E coli growth 0.69, rRNA inh HTS OD600 7 and rRNA inh HTS RFP -0.8.
For O=C(Nc1ccc(N2CCCCCC2)cc1)c1ccccc1Cl the results were rRNA inh HTS -29, HNF4A DNA FP 0.4, UCH37 inh 1.5, Beta2AR agonist 26, E coli growth 0.64, ALR inh 66, rRNA inh HTS OD600 -49 and rRNA inh HTS RFP -2.6.
Screening O=C(N/N=C1\CC(c2ccccc2)Oc2ccccc21)c1ccccn1 (configuration not stated) returned FGF22 binding inactive, rRNA inh HTS -1, HNF4A DNA FP -1.7, Beta2AR agonist 1, ALR inh 4, rRNA inh HTS OD600 5 and rRNA inh HTS RFP -2.3.
Screening COc1cccc(-c2nnc(SCCC(=O)O)n2C)c1 returned HNF4A DNA FP -0.5, UCH37 inh 1.5, Beta2AR agonist 2, E coli growth 0.69 and ALR inh -2.
CCCc1nc2nc(C)c(NS(=O)(=O)c3ccc([N+](=O)[O-])cc3)c(=O)n2[nH]1 was read as FGF22 binding inactive, rRNA inh HTS 4, HNF4A DNA FP 0.1, UCH37 inh 1.4, Beta2AR agonist 22, E coli growth 0.64, ALR inh 48, rRNA inh HTS OD600 5 and rRNA inh HTS RFP -2.7.
Screening COc1ccccc1OCCc1nnc(N)s1 returned FGF22 binding inactive, rRNA inh HTS 13, HNF4A DNA FP -1.5, UCH37 inh 1.5, Beta2AR agonist 2, E coli growth 0.64, ALR inh -10, rRNA inh HTS OD600 14 and rRNA inh HTS RFP -13.
Screening O=C(CSc1ccc(Cl)cc1Cl)N1CCC(c2nc3ccccc3s2)CC1 returned HNF4A DNA FP 1.3, UCH37 inh 5.7, Beta2AR agonist 0, E coli growth 0.81 and ALR inh -6.
Screening Cc1cc(C(=O)NNC(=O)c2ccc(F)cc2)c(C)s1 returned FGF22 binding inactive, rRNA inh HTS 5, HNF4A DNA FP 3.3, UCH37 inh 2.8, Beta2AR agonist 5, E coli growth 0.69, ALR inh -1, rRNA inh HTS OD600 -3 and rRNA inh HTS RFP -1.4.
Cc1ccc2c(CN3CCN(S(=O)(=O)c4ccc(Cl)cc4)CC3)cc(=O)oc2c1C was read as FGF22 binding inactive, rRNA inh HTS 13, HNF4A DNA FP 5.5, UCH37 inh 2.4, Beta2AR agonist 3, E coli growth 0.72, rRNA inh HTS OD600 4 and rRNA inh HTS RFP 4.7.
`COc1ccccc1N(C)S(=O)(=O)c1ccc(C(=O)NCc2ccccc2CN2CCCC2)cc1` gave FGF22 binding inactive, rRNA inh HTS -6, HNF4A DNA FP -3.4, Beta2AR agonist 6, rRNA inh HTS OD600 -9 and rRNA inh HTS RFP 2.9.
For Cc1ccc(C(=O)NCC(=O)OCC(=O)NC(C)c2ccccc2)s1 (configuration not stated) the results were rRNA inh HTS -7, HNF4A DNA FP 1.0, UCH37 inh 0.9, Beta2AR agonist 8, E coli growth 0.63, ALR inh -13, rRNA inh HTS OD600 -9 and rRNA inh HTS RFP 0.1.
`COc1ccc(/C=N/NC(=O)c2nn(-c3ccccc3)c(=O)c3c(N)scc23)cc1` gave HNF4A DNA FP -2.5, Beta2AR agonist 4 and ALR inh -60.
Cc1cccc(CSc2ncnc3nc[nH]c23)c1 was read as FGF22 binding inactive, rRNA inh HTS -13, HNF4A DNA FP -0.7, UCH37 inh 3.5, Beta2AR agonist -1, E coli growth 0.67, ALR inh 10, rRNA inh HTS OD600 -23 and rRNA inh HTS RFP -5.5.
Screening CCOC(=O)c1oc2cc(C)cc(O)c2c(=O)c1-c1csc(C)n1 returned HNF4A DNA FP 0.8, UCH37 inh 1.1, Beta2AR agonist -3, E coli growth 0.66 and ALR inh -21.
`COc1cc(C2CC(=O)N(CC(=O)NCC3CCCO3)c3ccccc3S2)cc(OC)c1OC` (configuration not stated) gave FGF22 binding inactive, rRNA inh HTS 7, HNF4A DNA FP 2.2, UCH37 inh 1.0, Beta2AR agonist -3, E coli growth 0.7, ALR inh 1, rRNA inh HTS OD600 6 and rRNA inh HTS RFP 0.3.

Continued; it opens with the two that closed the last part.
Screening CCOC(=O)c1oc2cc(C)cc(O)c2c(=O)c1-c1csc(C)n1 returned HNF4A DNA FP 0.8, UCH37 inh 1.1, Beta2AR agonist -3, E coli growth 0.66 and ALR inh -21.
`COc1cc(C2CC(=O)N(CC(=O)NCC3CCCO3)c3ccccc3S2)cc(OC)c1OC` (configuration not stated) gave FGF22 binding inactive, rRNA inh HTS 7, HNF4A DNA FP 2.2, UCH37 inh 1.0, Beta2AR agonist -3, E coli growth 0.7, ALR inh 1, rRNA inh HTS OD600 6 and rRNA inh HTS RFP 0.3.
Screening Cc1cc(C(F)F)nn1CC(=O)NC1CCCC1 returned FGF22 binding inactive, rRNA inh HTS 21, HNF4A DNA FP 2.8, Beta2AR agonist -2, ALR inh -11, rRNA inh HTS OD600 18 and rRNA inh HTS RFP 4.5.
CCc1ccc(C(=O)NC(C(=O)NCC2CCCO2)C(C)C)cc1 (configuration not stated) was read as FGF22 binding inactive, rRNA inh HTS 12, HNF4A DNA FP -0.4, Beta2AR agonist 10, rRNA inh HTS OD600 8 and rRNA inh HTS RFP 2.7.
Cc1cc(Oc2cnn(C(C)(C)C)c(=O)c2Cl)cc(C(C)C)c1 was read as HNF4A DNA FP -2.8, UCH37 inh 1.2, Beta2AR agonist 5, E coli growth 0.71 and ALR inh -3.
For O=C(O)c1ccccc1OCC1CCCO1 (configuration not stated) the results were FGF22 binding inactive, rRNA inh HTS 2, HNF4A DNA FP -1.6, UCH37 inh 2.0, Beta2AR agonist 3, E coli growth 0.66, ALR inh -6, rRNA inh HTS OD600 7 and rRNA inh HTS RFP -1.0.
`CCOC(=O)C(C)On1c(-c2ccc(Cl)cc2)nc2ccc([N+](=O)[O-])cc21` (configuration not stated) gave HNF4A DNA FP -5.4, UCH37 inh 0.7, Beta2AR agonist 12, E coli growth 0.62 and ALR inh -2.
`CCOC(=O)C1(CCOc2ccccc2)CCN(Cc2cccc(OC)c2O)CC1` gave FGF22 binding inactive, rRNA inh HTS -25, HNF4A DNA FP 2.1, UCH37 inh 3.4, Beta2AR agonist 10, E coli growth 0.66, ALR inh 13, rRNA inh HTS OD600 -26 and rRNA inh HTS RFP -1.2.
Cc1ccc(Nc2ncnc(Cl)c2N)cc1 was read as FGF22 binding inactive, rRNA inh HTS -10, HNF4A DNA FP 0.8, UCH37 inh 3.3, Beta2AR agonist -1, E coli growth 0.64, rRNA inh HTS OD600 -19 and rRNA inh HTS RFP -5.2.
COc1ccc(N2Cc3cccc(C(=O)O)c3C2=O)cc1 was read as HNF4A DNA FP -36, UCH37 inh 3.5, Beta2AR agonist 1, E coli growth 0.72 and ALR inh 4.
`Cc1cccc(C(=O)NC(=S)N2CCN(c3ccc([N+](=O)[O-])cc3)CC2)c1` gave FGF22 binding inactive, HNF4A DNA FP 1.8, UCH37 inh 5.5, Beta2AR agonist 8, E coli growth 0.72 and ALR inh -5.
For Cc1csc(NC(=O)c2cc(C)on2)n1 the results were FGF22 binding inactive, rRNA inh HTS 5, HNF4A DNA FP 3.8, UCH37 inh 5.2, Beta2AR agonist 0, E coli growth 0.66, rRNA inh HTS OD600 12 and rRNA inh HTS RFP -0.2.

Screens (PubChem)
